TAR Tat displ = HIV-1 TAR-Tat binding disruption; AID 1259389; 100,000 compounds, 0.6% hits; z-score (no concentration beside the values); HIV-1 TAR RNA, Tat peptide displacement FRET; hits give high values;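 also: score is relative to mean and SD of negative controls; some compounds called inactive have numbers as strong as hits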
CDC25B-CDK2 inh = human CDC25B-CDK2/CyclinA binding inhibition; P30305+P24941; HTRF CDC25B-CDK2/CyclinA binding, anti-His/anti-Flag; hits give high values; z-score (concentration not given with the values); 94,000 compounds, 0.72% hits;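 also: score is relative to mean and SD of negative controls; strong numbers were not always called active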
An asterisk follows results filed as active; . = not tested or not shown.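 The calls were made as follows: active = z-score from 3 up in half or more of its runs; inactive = the rest.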 Random draw from the library; 0.97% or so of the library scored in one or more.

compound	TAR Tat displ	CDC25B-CDK2 inh
COc1ccccc1-n1ncc2c(=O)[nH]c(SC/C=C/c3ccccc3)nc21	4.4	.
CC1CCC2C(=O)N(c3ccc(N4C(=O)C5CCC(C)CC5C4=O)cc3)C(=O)C2C1 (stereo not drawn)	0.05	-0.13
COc1cc2[nH]c(=S)n(CCc3c[nH]c4ccccc34)c(=O)c2cc1OC	.	-2.4
O=C1CCCc2cc(S(=O)(=O)NCCCN(Cc3ccco3)C3CCCC3)ccc2N1	-0.98	.
N[C@@H](Cc1ccccc1)c1nnc(SCc2ccc(Br)cc2)o1	-0.27	-0.76
CCOC(=O)Cc1csc(NC(=O)c2cnc3ccc(C)cn3c2=O)n1	0.41	0
CCOC(=O)c1c(NC(=O)c2cccs2)sc(C(=O)N2CCOCC2)c1C	1.1	0.01
CCCNC(=O)CCc1nnc2ccc(N3CCC(C)CC3)nn12	-1.2	.
O=S(=O)(NCc1ccc(Cl)cc1)c1ccc(-c2cnc(C3CC3)o2)cc1	0.72	.
O=C(CSc1nc2ccccc2c2nc3ccccc3n12)NCc1ccco1	0.56	.
COc1ccccc1C(=O)Oc1ccc2oc(=O)sc2c1	1.3	-2.4
CCOC(=O)c1sc2ccccc2c1S(=O)(=O)Nc1ccc2c(c1)OCO2	-0.44	.
O=C1CN(Cc2ccc(Br)cc2)S(=O)(=O)c2ccccc2N1Cc1ccccc1F	1.8	.
Cc1ccc(-c2nc(-c3ccc(Cl)cc3)no2)c(Cl)c1	0.3	-0.9
COc1ccc(OC)c(Nc2nc(C)nc3c2CCC3)c1	-1.1	-1.7
COc1cc(OC)c(Nc2c(-c3ccc4c(c3)CCCC4)c(=O)c2=O)cc1Cl	0.72	.
C=CCc1ccccc1OCc1cc(=O)n2nc(-c3ccccc3)sc2n1	-1.3	-1.1
CCC(C)NC(=O)c1cnn2c(C)cc(C)nc12 (stereo not drawn)	0.4	.
COc1ccc(N2CCN(c3ncnc4c3nnn4C)CC2)cc1	1.4	.
CCN(CC)C(=O)c1[nH]c(C)c(C)c1C	.	-2.1
Cc1ccc(CNc2nc3ccccc3c3nnc(C)n23)cc1	-0.82	.
O=C1c2cccnc2C(=O)N1Cc1ccc(F)cc1S(=O)(=O)N1CCOCC1	-1.3	.
Cc1ccc2nc(Nc3ccc(F)cc3)c3nnnn3c2c1	-1.6	-1.6
CCCCNc1nc(N)ns1	.	-1.9
CCOc1ccc2nc(N(CCN(CC)CC)C(=O)c3ccco3)sc2c1	0.76	.
CN(C)CCN1C(=O)C(=O)/C(=C(/O)c2ccccc2)C1c1ccc(Br)cc1 (stereo not drawn)	2.6	-3
N#CSCOC(=O)Oc1ccc2ccccc2c1	.	0.58
O=C(Nc1ccccc1Cl)C1CCN(c2ccccc2)C1=O (stereo not drawn)	0.02	.
CCOCCc1nn2c(=O)cc(COC(=O)c3ccccc3Cl)nc2s1	-0.45	.
O=C(CCBr)NC(=O)OCC(F)(F)C(F)F	.	-1.3
COc1ccc(N2CSC3=C(C#N)C(c4cccc(OC)c4OC)CC(=O)N3C2)c(OC)c1 (stereo not drawn)	-0.92	5.7*
CCN(CC)c1ccc2nnc(CCC(=O)Nc3cc(C)ccn3)n2n1	0.03	.
O=C(Cc1ccc(NC2=NC3CS(=O)(=O)CC3S2)cc1)NCc1ccc2c(c1)OCO2 (stereo not drawn)	1.6	-1.3
CC(NC(=O)c1cccs1)C(c1cccs1)N1CCN(C)CC1 (stereo not drawn)	.	-0.47
Cc1ccc(C(CNC(=O)c2oc3ccc(F)cc3c2C)N2CCC(C)CC2)o1 (stereo not drawn)	0.02	-1.3
CC1(C)C(=S)NC(c2ccccc2)N1O (stereo not drawn)	.	-1.4
C=CCOC(=O)C1C(c2ccc(OCC)cc2)c2c([nH][nH]c2=O)CC1(C)O (stereo not drawn)	1.5	-0.14
N#C/C(=C\C(=C\N1CCOCC1)c1ccccc1)c1ccccc1	.	0.55
COc1ccc(-c2noc(COc3cc(C)cc(C)c3C)n2)cc1OC	-0.28	1.4
O=C(Nc1ccc(F)cc1F)N1CCCN(c2nc3cc(F)ccc3n3cccc23)CC1	0.99	.
CCCCNS(=O)(=O)c1ccc2c(c1)oc(=O)n2CC(=O)OCC	-0.13	0.6
C=CCn1c(SCc2ccccc2Cl)nc2c1c(=O)[nH]c(=O)n2C	1.2	0.19
O=c1[nH]c2cc3c(cc2c(=O)n1CCc1nc(-c2ccccc2Br)no1)OCO3	1.1	.
COC(=O)c1c(C(=O)OC)c2n(c1C)CCS2	.	-1.9
CC(C)(C)NC(=O)c1oc2ccccc2c1NC(=O)C1CCCCC1	2	.
Cc1cc(F)ccc1NC(=O)c1c(-c2ccccc2Cl)noc1C	.	1.3
Nc1nnc(SCC(=O)n2c3c(c4c2CCCC4)CCCC3)s1	.	-1.2
CC1CSc2ccc(S(=O)(=O)Nc3ccccc3)cc2NC1=O (stereo not drawn)	0.75	.
OCCCc1nc2n(n1)C(c1ccccc1Cl)C=C(c1ccc(F)cc1)N2 (stereo not drawn)	-0.19	-0.64
Cc1ccc(C(=O)O)c(C(=O)Nc2nc3ccc(S(C)(=O)=O)cc3s2)c1	.	-1.5

(further entries)
compound	TAR Tat displ	CDC25B-CDK2 inh
Cc1cc(Nc2ccc3c(c2)OCO3)nc(-n2cc([N+](=O)[O-])cn2)n1	0.29	.
COc1ccccc1NC(=O)CSC1=NS(=O)(=O)c2ccccc2N1	1.7	.
CCn1ccc2cc(S(=O)(=O)N3CCCC(C(=O)N4CCC(C)CC4)C3)ccc21 (stereo not drawn)	1.1	.
O=c1c(S(=O)(=O)c2ccc(F)c(Cl)c2)c[nH]c2c(F)cccc12	2.9	-1.8
CCn1c2ccccc2c2nc3cc(OC)c(OC)cc3nc21	3.6	0
O=[N+]([O-])c1ccc2c(c1)CCN2S(=O)(=O)c1ccccc1	.	-2.3
CCOC(=O)N1CCN(S(=O)(=O)N2CCCC(C(=O)NC3CCCC3)C2)CC1 (stereo not drawn)	1.4	.
S=c1nc(-c2cc(Cl)cc(Cl)c2)[nH][nH]1	.	2.9
Cc1ccc(C)c(S(=O)(=O)NCCc2csc3nc(-c4ccccc4C)nn23)c1	1.3	.
Cc1ccc(Cl)cc1-n1ncc2c(N3CCCCC3)ncnc21	1.6	.
COc1ccc(-c2[nH]ncc2/C=N/NC(=S)NC(C)(C)C)cc1	.	-1.4
C/C(=N\OC(=O)c1ccc(C(F)(F)F)cc1)c1csc2ccccc12	.	-0.93
Nc1nnc(SCC(=O)Nc2ccc3c(c2)OCO3)s1	.	-0.86
CN(CCNC(=O)C1CCCN(c2nn3c(=O)c4c(nc3s2)CCCC4)C1)C1CCCCC1 (stereo not drawn)	1.6	.
Cc1nn(-c2ccc(N3CCCC3)nn2)c(C)c1CCC(=O)NC1CCCC1	0.73	.
CCC(C)NC(=O)C1=CC(c2ccc(F)cc2)=NS(=O)(=O)N1C (stereo not drawn)	3.8*	-2.2
O=C1c2cccnc2C(=O)N1Cc1ccc(F)cc1S(=O)(=O)NCc1cccnc1	-0.2	.
C=CCSc1nc2c(c(=O)[nH]1)C(c1ccccc1)C(C#N)=C(N)O2 (stereo not drawn)	.	-0.54
COc1ccc(OC(C)c2nc3ccccc3[nH]2)cc1 (stereo not drawn)	0.89	-1.1
CCOc1ccc(OCC)c(NS(=O)(=O)c2ccc(-c3cc(C)no3)s2)c1	1.2	.
CC(=O)N1CCc2cc(S(=O)(=O)CCC(=O)N3CCCC3)ccc21	-0.31	.
CCCOC(=O)C1=C(C)NC2=C(C(=O)CC(C)(C)C2)C1c1ccccc1Br (stereo not drawn)	0.94	-1.8
Cc1nn(-c2ccc3nnc(C)n3n2)c2c1C(c1ccccc1OCc1cccc(Cl)c1)CC(=O)N2 (stereo not drawn)	0.53	.
CS(=O)(=O)c1ccc2nc(NC(=O)c3cc4ccccc4o3)sc2c1	3	0.18
CCOC(=O)C1CCN(c2ccc3cc(S(=O)(=O)N4CCCCC4)ccc3n2)CC1	1.3	.

Random excerpt: 3 records from the list.
compound	TAR Tat displ	CDC25B-CDK2 inh
CCOC(=O)N1CCN(S(=O)(=O)N2CCCC(C(=O)NC3CCCC3)C2)CC1 (stereo not drawn)	1.4	.
O=c1c(S(=O)(=O)c2ccc(F)c(Cl)c2)c[nH]c2c(F)cccc12	2.9	-1.8
C/C(=N\OC(=O)c1ccc(C(F)(F)F)cc1)c1csc2ccccc12	.	-0.93

Going on with the list.
compound	TAR Tat displ	CDC25B-CDK2 inh
N#Cc1nc(/C=C/c2ccc(F)cc2)oc1N1CCN(C(=O)c2ccccc2F)CC1	-1.2	-0.96
N#C/C(=C\c1cccc([N+](=O)[O-])c1)c1cccc(C(F)(F)F)c1	.	-1.3
CCc1nc2nc(C)c(NS(=O)(=O)c3ccc(F)cc3)c(=O)n2[nH]1	2	-2.1
CCOC(=O)c1[nH]c(C)c(C(=O)Nc2c(C)n(C)n(-c3ccccc3)c2=O)c1C	0.08	-2.7
CSc1cccc(NC(=O)c2nn(C)c3c2CCc2sccc2-3)c1	-1.1	.
CCc1nnc2c3ccccc3nc(Nc3ccccc3F)n12	0.25	-1.9
COc1ccc(CCN2C(=O)c3cccc4cc([N+](=O)[O-])cc(c34)C2=O)cc1OC	.	0.94
CCc1n(CC(O)COc2c(C)cccc2C)c2ccccc2[n+]1C (stereo not drawn)	1.5	-1.8
O=C(c1ccco1)N1CCN(c2ccc3cc(S(=O)(=O)N4CCOCC4)ccc3n2)CC1	0.69	.
CSc1cccc(NS(=O)(=O)c2ccc3[nH]c(=O)ccc3c2)c1	2.9	.
O=C1C2C(c3ccccc3)C=CC(c3ccccc3)C2C(=O)N1c1nccs1 (stereo not drawn)	.	-0.01
CC1(C)CC(=O)C2=C(C1)Nc1ccccc1N(C1OC(=O)c3ccccc31)C2c1ccco1 (stereo not drawn)	.	0.08
CC1CSc2ccc(S(=O)(=O)N(Cc3ccco3)C3CCN(C)CC3)cc2NC1=O (stereo not drawn)	1.1	.
Cc1ccc(C)c(CN2CCNC2=O)c1	1.6	.
CC1CCCCN1CCNC(=O)c1noc2c1CSc1ccccc1-2 (stereo not drawn)	0.55	-2.5
Clc1ccccc1CN1CCN(Cc2cccnc2)CC1	1.5	0.08
CCOC(=O)Cc1csc(NC(=O)C2CCCN(c3ncnc4c3nc3n4CCCCC3)C2)n1 (stereo not drawn)	-0.76	.
CC1C(=O)Nc2ccc(S(=O)(=O)Nc3ccc(F)cc3)cc2NC1=O (stereo not drawn)	0.85	0.03
CCC(Cn1nnc2ccccc2c1=O)NC(=O)Nc1ccc(F)cc1 (stereo not drawn)	1.1	1.3
Cc1ccc(C2C3=C(Nc4ncnn42)c2ccccc2OC3c2cccs2)cc1 (stereo not drawn)	.	-0.73
COCC(C)Nc1ncnc2c1cnn2-c1ccc(C)cc1 (stereo not drawn)	1.8	.
CCOC(=O)c1cnc(Nc2nc3ccccc3s2)nc1CSc1ncccn1	-0.87	-1.5
CCOc1ccc2[nH]c(C)c(CN(C)C)c(=O)c2c1	-0.56	-0.2
O=C1CCCc2cc(S(=O)(=O)NCCSCc3ccco3)ccc2N1	-3.2	.
CN(C)S(=O)(=O)N(CC(=O)NCc1ccco1)c1ccccc1	3	-1.4

7 entries already listed, ordered by molecular weight, rising.
compound	TAR Tat displ	CDC25B-CDK2 inh
CCOc1ccc2[nH]c(C)c(CN(C)C)c(=O)c2c1	-0.56	-0.2
Clc1ccccc1CN1CCN(Cc2cccnc2)CC1	1.5	0.08
CCc1nnc2c3ccccc3nc(Nc3ccccc3F)n12	0.25	-1.9
N#C/C(=C\c1cccc([N+](=O)[O-])c1)c1cccc(C(F)(F)F)c1	.	-1.3
CCC(Cn1nnc2ccccc2c1=O)NC(=O)Nc1ccc(F)cc1 (stereo not drawn)	1.1	1.3
Cc1ccc(C2C3=C(Nc4ncnn42)c2ccccc2OC3c2cccs2)cc1 (stereo not drawn)	.	-0.73
CC1CSc2ccc(S(=O)(=O)N(Cc3ccco3)C3CCN(C)CC3)cc2NC1=O (stereo not drawn)	1.1	.

The results go on.
compound	TAR Tat displ	CDC25B-CDK2 inh
COc1ccc(-c2noc(NCCc3ccc(OC)c(OC)c3)n2)cc1	0.14	-0.66
COc1ccc(-c2nn3c(-c4ccccc4)nnc3s2)cc1OC	21*	-0.33
Brc1ccc(-c2noc(CSc3nnc(-c4ccco4)n3-c3ccccc3)n2)cc1	-0.32	-0.46
Cc1ccc(CSc2nnc(-c3ccccc3Cl)o2)cc1	0.81	0.95
CC1=C(C(=O)Nc2ccccc2Br)C2(CCC(C)CC2)OC1=O (stereo not drawn)	0.62	-1.5
COC(=O)c1ccccc1-n1cc2c(c1-c1ccc(Br)cc1)c(=O)n(C)c(=O)n2C	-0.02	-2.6
Cc1cc(C)cc(NS(=O)(=O)c2c(C)[nH]c(C)c2C(=O)N2CCCC2)c1	0.59	.
CCC(=O)N1CCN(Cc2noc(CCC(=O)N3CCC(C)CC3)n2)CC1	-1.8	.
N#C/C(=C\c1ccco1)C(=O)c1ccco1	.	-0.79
CS(=O)(=NC(=O)c1ccc2nnsc2c1)c1ccccc1 (stereo not drawn)	.	-1.5
CCOC(CC(=O)NNC(=O)Nc1cccc(C(F)(F)F)c1)OCC	.	-1.4
CCOC(=O)c1sc(CN2CCN(c3cccc(Cl)c3)CC2)nc1C	.	-2
Cc1ccc2c(CC(=O)Nc3sc4c(c3C(=O)NCC3CCCO3)CCC4)coc2c1 (stereo not drawn)	2.5	-1.4
CCCOCc1cc(CN2CCN(c3ccccc3)CC2)c(O)c2ncccc12	1.1	-3.1

Bioassay records as filed in PubChem.
